Screens (PubChem BioAssay)
Rango release inh: inhibition of RanGTP-driven Rango-importin beta dissociation | Potency, µM (series often up to 46.1 µM), for inactives: at the top dose activity change, negative = inhibition | 340,000 compounds, 0.071% hits | O95149+P62826 | Biochemical FRET Rango-importin beta, RanGTP-induced dissociation | AID 540253; active means falling FRET ratio curve, often poorly fitted, with flat reads before Ran was added; inconclusive means other falling curves, or compound fluorescence or quenching; inactive means flat or rising ratio curve;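 also: potency is read from the fitted curve at half-maximal effect; % of control where 0% means no effect; nearly all actives have a fitted effect of over 45% in size; -100% = wells without RanGTP and RCC1; the record marks most hits as doubtful in a second field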
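Rango (0.1 uM)–importin beta (0.25 uM) complex; RanGTP-RCC1 trigger; 45 min RT; CFP/YFP FRET read.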
GLA inh pH 4.5: alpha-galactosidase A (human) inhibition, pH 4.5. P06280. purified enzyme, 4-MU-alpha-Gal fluorescence, pH 4.5. activity change, negative = inhibition, % at 105 µM. 230,000 tested, under 10 active. AID 1467; inconclusive = small, poorly fitted or top-dose-only inhibition, or a rising curve; inactive = flat fitted curve, though single readings scatter; no compound was filed as active;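 also: 0% = full activity with enzyme and -100% = basal without enzyme; dose as in the result columns while the protocol names 77 µM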
miR-21 FLuc: raises the signal of a miR-21 reporter. 340,000 tested, under 10 active. Potency, µM (doses to about 38.3 µM), for the others: top-dose reporter change, positive = more light. HeLa miR-21 FLuc reporter, luciferase, 48 h; active = well fitted rising curve with a large enough effect; inconclusive = small, poorly fitted or top-dose-only effect; inactive = no such curve, though single readings can be large or run the other way;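 also: % of control where 0% means no effect; miR-21 action dims this reporter so a rising signal means less miR-21 action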
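HeLa cells stably expressing CMV-driven firefly luciferase with a downstream miR-21 binding sequence, endogenously expressing miR-21, were treated with titrations (up to about 40uM final) for 48 hours at 37 degree Celsius. Luciferase luminescence was read after lysis.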
Rango complex inh: Rango-importin beta binding inhibition; Q14974; Rango CFP/YFP FRET sensor + importin beta, 45 min; Potency, µM (top dose mostly 92.2 µM), for inactives: at the top dose inhibition of complex formation; 340,000 compounds, 0.031% hits; AID 540263; active = rising FRET ratio curve, often small or poorly fitted; inconclusive = mostly compound fluorescence or quenching in the first reads; inactive = flat curves in all reads;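 also: potency is read from the fitted curve at half-maximal effect; 0% = DMSO wells and 100% = buffer wells lacking importin beta; nearly all actives have a fitted effect of over 15% in size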
Target sequence (Q14974 whole entry, looked up): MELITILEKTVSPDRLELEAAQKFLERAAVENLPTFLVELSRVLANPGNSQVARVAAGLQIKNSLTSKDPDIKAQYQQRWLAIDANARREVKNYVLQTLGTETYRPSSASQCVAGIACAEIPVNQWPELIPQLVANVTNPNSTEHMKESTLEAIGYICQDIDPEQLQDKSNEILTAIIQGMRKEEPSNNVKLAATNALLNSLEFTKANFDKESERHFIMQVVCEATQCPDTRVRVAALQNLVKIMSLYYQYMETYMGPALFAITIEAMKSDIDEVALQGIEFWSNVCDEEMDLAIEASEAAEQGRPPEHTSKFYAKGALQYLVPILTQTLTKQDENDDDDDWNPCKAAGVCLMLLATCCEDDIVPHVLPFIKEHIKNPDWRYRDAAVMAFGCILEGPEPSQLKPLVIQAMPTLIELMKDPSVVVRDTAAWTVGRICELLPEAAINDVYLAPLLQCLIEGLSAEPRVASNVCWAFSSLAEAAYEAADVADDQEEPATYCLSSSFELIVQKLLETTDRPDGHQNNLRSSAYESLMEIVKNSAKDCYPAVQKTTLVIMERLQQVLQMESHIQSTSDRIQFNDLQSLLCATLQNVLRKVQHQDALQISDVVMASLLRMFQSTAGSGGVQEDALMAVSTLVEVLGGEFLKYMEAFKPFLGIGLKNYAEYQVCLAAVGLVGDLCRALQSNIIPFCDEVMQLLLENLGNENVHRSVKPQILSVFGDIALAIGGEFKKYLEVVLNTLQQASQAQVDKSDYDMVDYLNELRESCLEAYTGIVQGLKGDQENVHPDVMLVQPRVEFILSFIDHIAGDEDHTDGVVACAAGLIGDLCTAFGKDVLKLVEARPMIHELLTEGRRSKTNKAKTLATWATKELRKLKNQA
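FRET biosensor (snurportin 1 IBB flanked by EYFP and cerulean), 50 nM, with compound 5 min, then 0.125 microM importin beta in PBS, 1 mM DTT, 0.02% Tween-20, 0.1% BSA. CFP/YFP ratio read after 45 min at room temperature; pre-read flags interference.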
Starred values were filed as active, the others as inactive; ? = inconclusive; . = not tested or not shown; & = joins results of further samples. This is a subset. The share of hits here may be higher or lower than overall.

GLA inh pH 4.5	Rango release inh	Rango complex inh	miR-21 FLuc	canonical_smiles
4.1	-12.6%	-2.9%	-1.7%	CC(C)C(NS(=O)(=O)c1ccc2c(c1)OCCCO2)C(=O)O (stereo not drawn)
-7.6	-10.1%	-1.1%	-3.1%	COc1ccccc1NC(=O)NC1(C(=O)N2CCCCCC2)CCCCC1
-2.1	?	1.6%	-36.0%	O=C1C2C3C=CC(C3)C2C(=O)N1/N=C/c1ccc(-c2ccccc2[N+](=O)[O-])o1 (stereo not drawn)
-1.7	-4.6%	1.2%	-2.7%	Cc1ccc(NS(=O)(=O)c2cn(C)cn2)cc1
2.3	-7.8%	1.3%	-11.6%	CCNc1nc(NCC)nc(C(=O)NN)n1
-29.4	1.7%	0.2%	-19.6%	CC(C)OC(=O)c1cc(NC(=O)C2C3CCC(O3)C2C(=O)O)cc(C(=O)OC(C)C)c1 (stereo not drawn)
1.8	21.6%	-0.8%	-5.0%	COc1ccc(C)cc1-n1nnnc1SCC1CCCCO1 (stereo not drawn)
.	-6.5%	-0.2%	.	O=C1NCCOC(=O)[C@@H](Cc2ccc(F)cc2)CC/C=C/C[C@@H]1CC(=O)N(CCO)Cc1ccccc1
.	24.2%	2.5%	1.7%	CCN(CC)CCNC(=O)c1ccc(NC(=O)c2cccc(S(=O)(=O)N3c4ccccc4CC3C)c2)cc1 (stereo not drawn)
-0.3	?	?	-21.1%	COc1ccc(N)cc1-n1c(C)ccc1C
.	-8.0%	1.2%	-6.6%	COc1cccc(CNC(=O)c2cccs2)c1
0.9	36.6%	-0.3%	-4.1%	Cn1nnnc1SCC(=O)N1c2ccccc2Sc2ccccc21
-3.6	12.4%	-0.4%	29.0%	Cc1ccc(NS(=O)(=O)c2cc(C(=O)NCCSC3CCCCC3)ccc2C)cc1
-3.1	-4.5%	-0.2%	-7.3%	O=c1c2[nH]c3ccccc3c2ncn1CCN1CCNCC1
.	4.7%	-0.2%	-3.2%	O=C(Nc1ccccc1N1CCN(C(=O)c2ccc(Cl)cc2)CC1)c1ccc([N+](=O)[O-])o1
-3.6	-6.6%	-1.1%	-5.2%	O=C(NCc1ccco1)/C(=C\c1ccco1)NC(=O)c1ccco1
4.1	16.0%	3.4%	2.5%	CCCCC(=O)Nc1ccc(N2CCN(C(=O)CC)CC2)cc1
.	-11.7%	-3.5%	3.2%	CCCc1cc(=O)oc2cc(OCC(=O)NCCCn3ccnc3)c(Cl)cc12
3.3	-15.9%	0.3%	-5.8%	CC(C)n1nc(C(=O)Nc2nc3ccc(S(C)(=O)=O)cc3s2)c2ccccc2c1=O
.	11.4%	7.4%	.	CC(=NNc1nc2ccccc2o1)c1ncccn1

The final 5 entries of the section above lead into the next:
GLA inh pH 4.5	Rango release inh	Rango complex inh	miR-21 FLuc	canonical_smiles
-3.6	-6.6%	-1.1%	-5.2%	O=C(NCc1ccco1)/C(=C\c1ccco1)NC(=O)c1ccco1
4.1	16.0%	3.4%	2.5%	CCCCC(=O)Nc1ccc(N2CCN(C(=O)CC)CC2)cc1
.	-11.7%	-3.5%	3.2%	CCCc1cc(=O)oc2cc(OCC(=O)NCCCn3ccnc3)c(Cl)cc12
3.3	-15.9%	0.3%	-5.8%	CC(C)n1nc(C(=O)Nc2nc3ccc(S(C)(=O)=O)cc3s2)c2ccccc2c1=O
.	11.4%	7.4%	.	CC(=NNc1nc2ccccc2o1)c1ncccn1
.	-17.7%	-3.8%	.	CCc1cc(Cn2nc(-c3ccccc3)cc2C(=O)NCc2ccc(C)cc2)on1
-18.3	-5.0%	-3.7%	-27.2%	CC(=O)c1sc(NC(=O)c2ccc(F)cc2)nc1-c1ccccc1
1.7	-9.9%	?	-15.5%	COc1ccc(/C=C/C(=O)Nc2nc(C)cc(C)n2)cc1OC
.	5.4%	7.8%	.	CC(C)CC1NC(=O)N(CC(=O)NC2CCCCC2)C1=O (stereo not drawn)
-3.0	18.0%	2.6%	-2.9%	Cc1cc(C)c2nc(SC3CCOC3=O)cc(C)c2c1 (stereo not drawn)
9.1	8.5%	-2.1%	3.4%	CSc1ncc(C(C)=O)c(C)n1
-27.8	4.6%	0.1%	-4.7%	Cc1ccc(N2CCN(c3cc(C)nc4nc(C)nn34)CC2)c(C)c1
.	1.5%	-0.5%	.	CC(OC(=O)c1cnccn1)C(=O)c1ccccc1 (stereo not drawn)
.	17.9%	-0.3%	.	Cc1ccc(C(C)C)c(OCCOCCN2CCNCC2)c1
.	0.3%	-0.2%	.	Cc1ccccc1C(=O)NCCCNC(=O)c1ccccc1C
1.2	-1.9%	0.3%	0.5%	Cc1ccc(-c2cc(C(=O)Nc3c(C)n(C)n(-c4ccccc4)c3=O)[nH]n2)c(O)c1C
-7.1	-3.5%	-2.8%	-7.6%	COc1ccccc1C(=O)C1CCCN(C(=O)c2ccc3c(c2)OCCO3)C1 (stereo not drawn)
6.4	5.7%	-0.9%	-1.5%	Cc1ccc(-c2nn(CCC(=O)NN3CCOCC3)c(=O)c3ccccc23)cc1
.	9.4%	-1.1%	-5.7%	CC(C)n1c(O)c(N=NC(=O)CNC(=O)Cc2ccc(Cl)cc2)c2ccccc21
-6.5	22.6%	-0.9%	-0.2%	CS(=O)(=O)N(CC(=O)N1CCOCC1)c1ccc2c(c1)OCO2
-1.3&6.0	3.3%&8.8%	-6.4%&0.8%	1.1%&-1.1%	O=C(O)CSc1nc2c(c(C(F)(F)F)n1)CCCC2
.	-14.1%	0.3%	-4.8%	CCn1cc(/C=C(\NC(=O)c2ccccc2Cl)C(=O)N2CCN(C)CC2)c2ccccc21
12.0	2.6%	2.0%	-47.2%	COc1ccc(-c2nnc(N(C)C(=O)C3CCCO3)s2)cc1 (stereo not drawn)
4.6	16.5%	6.9%	-7.8%	CCCCCCCCCCNC(=O)C(=O)Nc1ccccn1
.	-0.4%	-3.4%	-10.0%	COc1ccc(N2C(=O)CC(N3CCN(c4cccc(Cl)c4)CC3)C2=O)cc1 (stereo not drawn)
.	-5.3%	-0.8%	-0.8%	Cc1cccc(C)c1NS(=O)(=O)c1cc2c3c(c1)CC(=O)N3CCC2
.	5.1%	-0.1%	.	CCOc1ncccc1C(=O)Nc1cccc(S(=O)(=O)NC2=NCCC2)c1
12.0	17.4%	0.4%	5.5%	COCC(C)n1c(SCC(=O)N(C)C2CCS(=O)(=O)C2)nc2ccccc2c1=O (stereo not drawn)
-2.9	?	5.6%	-1.7%	COc1ccc(C(CC(=O)O)NC(=O)c2cc3cc(Br)ccc3oc2=O)cc1OC (stereo not drawn)
.	-9.3%	-0.9%	-21.9%	C/C(=N/NC(=O)c1ccc(Cl)cc1Cl)c1cccnc1
.	1.7%	-0.2%	.	COc1cccc(CNC(=O)Cc2csc(NC(=O)Nc3ccccc3OC)n2)c1
-2.7	?	?	-7.7%	Cc1ccc(NC(=O)Cc2nc(CCl)cs2)cc1
.	7.1%	-2.6%	-3.9%	CC(NC(=O)CN1CCN(Cc2cccc(F)c2)CC1)c1ccccc1 (stereo not drawn)
-9.0	1.2%	2.2%	1.2%	Fc1cccc(Cl)c1-c1nnc2ccc(C(F)(F)F)cn12
-3.3	-0.2%	5.2%	-11.1%	Cc1cc(N/N=C/c2ccccc2)nc(NCc2ccccc2)n1
.	-7.8%	?	-32.9%	Fc1ccc(-c2ccc(CNCc3ccccn3)o2)cc1Cl
.	-1.5%	0.1%	-31.3%	Cc1ccc(-c2nc3ccccc3c(=O)o2)cc1
.	0.9%	-1.1%	-1.3%	O=C(O)c1cc(NC(=O)c2cccc(C(=O)Nc3cc(C(=O)O)cc(C(=O)O)c3)c2)cc(C(=O)O)c1
6.7	-21.9%	-2.6%	1.7%	CC(C)[C@H](NC(=O)c1ccccc1)C(=O)OCC(=O)N1CCc2ccccc2C1
.	11.4%	-2.0%	5.2%	COc1ccc(CNC(=O)C(c2ccccc2F)N(C(=O)c2csnn2)C2CC2)cc1 (stereo not drawn)
.	16.4%	7.5%	.	CC(C)(C)C1CCC(CN2CCC(CN3C(=O)C(=O)NC[C@@H]3Cc3ccccc3)CC2)CC1 (stereo partly drawn)
.	-5.0%	-1.2%	-18.6%	C/C(=N\NC(=O)c1ccccc1F)c1ccccn1
0.1	0.1%	0.0%	-5.1%	CCNc1nc(NCC)n2c(SCC(=O)c3ccccc3Cl)nnc2n1
-4.0	3.6%	-1.2%	-0.6%	CC(C)(C)NC(=O)CSc1nnc(-c2ccccn2)n1-c1ccccc1
2.7	6.7%	-3.0%	-3.2%	COc1cccc(CN(C)CC(=O)NC(=O)NCc2ccccc2)c1

Complete entries from above. Values in the order: GLA inh pH 4.5 | Rango release inh | Rango complex inh | miR-21 FLuc
`Fc1cccc(Cl)c1-c1nnc2ccc(C(F)(F)F)cn12` is entered as -9.0 | 1.2% | 2.2% | 1.2%
`CC(OC(=O)c1cnccn1)C(=O)c1ccccc1` (stereo not drawn) is entered as . | 1.5% | -0.5% | .

(cont.)
GLA inh pH 4.5	Rango release inh	Rango complex inh	miR-21 FLuc	canonical_smiles
6.6	-6.0%	2.5%	4.1%	Cc1ccc(Cn2ncc3c(N4CCN(c5ccc(C)cc5)CC4)ncnc32)cc1
-1.6	?	?	4.1%	CCOC(=O)/C(C#N)=C1/C=C(C)NC(c2ccccc2O)=N1
-8.9	0.1%	1.9%	-2.2%	O=S(=O)(/C=C/c1ccccc1)NCCc1ccccn1
3.5	-24.7%	0.5%	-1.3%	Nc1ccc(S(=O)(=O)N2CCCC2C(=O)O)cc1 (stereo not drawn)
.	-4.3%	-3.2%	-5.3%	Cc1cc2oc(=O)cc(CN3CCCCC3C)c2cc1C(C)C (stereo not drawn)
-10.3	0.9%	-1.8%	-45.4%	Oc1ccc(/C=N/NC(=S)Nc2cccnc2)cc1O
4.4	?	?	0.4%	c1cc(Nc2ncnc3sccc23)cc(-c2nnc3n2CCCCC3)c1
4.9	2.6%	0.5%	-6.4%	COc1ccccc1N1CCN(CC(=O)N2N=CCC2c2ccccc2)CC1 (stereo not drawn)
3.9	-15.0%	0.8%	-1.0%	O=C(CC1C(=O)NCCN1Cc1ccc(-c2ccccc2)cc1)NCCCn1cccn1 (stereo not drawn)
-3.8	8.2%	-1.8%	-8.6%	Cc1ccc(C(=O)Nc2ccon2)cc1S(=O)(=O)N1CCCC1
4.3	-11.9%	4.3%	-5.4%	COc1ccc(Cl)cc1NC(=S)Nc1ccc(Cl)cn1
-0.2	-14.1%	1.3%	-0.6%	CCOC(=O)C1CCCN(C2CC(=O)N(c3ccccc3)C2=O)C1 (stereo not drawn)
.	2.8%	3.0%	1.8%	CC(C)CNC(=O)c1cccc2c1-c1ccccc1C2=O
-7.7	-9.3%	-0.9%	-27.5%	Cc1ccc(-c2ccc(/C=N/NC(=O)CN3CCCC3)o2)cc1Cl
8.2	-2.3%	-0.7%	0.5%	CSc1nc(Cl)cc(N(CCO)CCO)n1
-4.0	2.7%	3.3%	-13.0%	CNC(=O)c1[nH]cnc1C(=O)Nc1cccc(OC)c1
-1.0	-3.8%	-5.7%	-12.4%	COc1cc(SC)ccc1C(=O)N(C)Cc1ccccc1
.	-0.6%	-2.5%	-1.1%	O=C(Cn1cnc(S(=O)(=O)N2CCCCC2)c1)NCc1ccco1
.	-1.3%	-1.8%	-5.7%	Cc1sc2ncn(CC(=O)NCCCC(=O)N(C)Cc3ccccc3)c(=O)c2c1C
.	9.9%	-2.0%	?	CCCC(=O)NC(c1ccc(N(C)C)cc1)c1ccc2cccnc2c1O (stereo not drawn)
-0.5	-8.2%	1.3%	-4.7%	CC(=O)c1cccc(NC(=O)COC(=O)C2=COCCO2)c1
5.0	-2.2%	0.5%	-51.4%	CCOC(=O)CSc1nc2cc(C)ccc2cc1C#N
-0.8	-10.4%	-1.5%	-9.1%	CN(C)c1oc(-c2ccccc2Cl)nc1S(=O)(=O)c1ccccc1
-22.5	-0.6%	-6.5%	-20.7%	COc1ccc(NCc2ccc3c(c2)OCO3)cc1Cl
.	14.7%	-2.7%	.	Cc1ccc(N2CC(C(=O)OCc3nc(N)nc(Nc4ccccc4C)n3)CC2=O)cc1 (stereo not drawn)
2.6	1.7%	-2.6%	0.5%	O=C(c1ccc(Cl)cc1)c1oc2ccccc2c1CS(=O)(=O)c1ccccc1
-0.8	11.8%	5.6%	-0.1%	C/C(Cc1ccccc1)=N/NC(=O)CNC(=O)C(c1ccccc1)c1ccccc1
